Bioassay records as filed in PubChem BioAssay.
Bst PK mod: modulators of Bacillus stearothermophilus pyruvate kinase | AID 361 | Potency, µM | 1.2% of 51,000 active | partly purified Bacillus stearothermophilus pyruvate kinase, luminescence ATP production; ribose 5-phosphate activator present at AC10; in the data active means potency below about 11 µM; inconclusive means mostly about 12 µM to 25 µM; inactive means weaker than that;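 the screen sought inhibitors and activators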;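 further: potency means the concentration at half of the fitted maximal effect; scaled between full activation by ribose 5 phosphate and full inhibition by luteolin; about four in five hits inhibit and the cells do not say which; series up to 57 µM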
YjeE inh: YjeE (TsaE) inhibition, E. coli | P0AF67 | purified YjeE, fluorescence polarisation of a bound ADP probe | Potency, µM | 0.05% of 71,000 active; active = well fitted falling curve; inconclusive = weaker or top-dose-only fall, or a rising curve; inactive = flat or poorly fitted curve;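 further: top concentration of the series not given in the record; excess ADP was the control for the full effect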
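Fluorescence polarization of a BODIPY Texas Red–ADP probe (2 uM) bound to purified YjeE (10 uM) was read after 15 min room-temperature incubation with compounds. Loss of polarization marks inhibitors; ADP serves as titrated control.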
Numbers without * were called inactive. A portion of the library; rates above refer to the full screens.

`O=C1CC(N2CCN(c3cccc(C(F)(F)F)c3)CC2)C(=O)N1c1ccccc1F` (stereo not drawn) gave YjeE inh inactive.
For c1ccc2oc(NC3=NCN(CC4CCCO4)CN3)nc2c1 (stereo not drawn) the results were Bst PK mod >57 and YjeE inh inactive.
CCOC(=O)c1cc(-c2ccc(F)cc2)n(CC(=O)N2CCCC2)c1C was read as Bst PK mod >57 and YjeE inh inactive.
CCC(C(=O)OC)n1cnc2c(nnn2-c2ccc(OC)cc2)c1=O (stereo not drawn) was read as Bst PK mod >57 and YjeE inh inactive.
`Nc1ccc2cn[nH]c2c1` gave Bst PK mod >26.
Screening COC(=O)C1CCN(c2nc3ccccc3nc2C(C#N)C(=O)OCC(C)C)CC1 (stereo not drawn) returned Bst PK mod >57 and YjeE inh inactive.
Screening CCn1c(SCC(=O)Nc2cc(OC)c(OC)c(OC)c2)nnc1-c1cccs1 returned Bst PK mod >57 and YjeE inh inactive.
O=C(NCc1cccs1)c1ccc2c(c1)OCCO2 was read as Bst PK mod >57 and YjeE inh inactive.
COCCNC(=O)CN(Cc1ccc2c(c1)OCO2)C(=O)CCC(=O)Nc1nccs1 was read as Bst PK mod >57 and YjeE inh inactive.
For C=CCOc1cccc(C2/C(=C(/O)c3ccccc3)C(=O)C(=O)N2CCN2CCOCC2)c1 (stereo not drawn) the results were Bst PK mod >57 and YjeE inh inactive.
For O=C(c1ccco1)N1CCN(S(=O)(=O)c2ccc(F)cc2)CC1 the results were YjeE inh inactive.
C=CCc1cccc(/C=N/c2ncccc2O)c1O was read as YjeE inh inactive.
Screening CCC(NC(=O)NC1=NCCS1)(C(F)(F)F)C(F)(F)F returned Bst PK mod >26.
`CCOc1ccc(-n2c(SCC(=O)NCc3ccco3)nc3c(c2=O)SCC3)cc1` gave Bst PK mod >57 and YjeE inh inactive.
`Cc1sc2ncnc(SCc3ccco3)c2c1C` gave Bst PK mod >57 and YjeE inh inactive.

Among those listed so far, 3 contain a furan ring, fused or not:
For O=C(c1ccco1)N1CCN(S(=O)(=O)c2ccc(F)cc2)CC1 the results were YjeE inh inactive.
`CCOc1ccc(-n2c(SCC(=O)NCc3ccco3)nc3c(c2=O)SCC3)cc1` gave Bst PK mod >57 and YjeE inh inactive.
`Cc1sc2ncnc(SCc3ccco3)c2c1C` gave Bst PK mod >57 and YjeE inh inactive.

Later entries.
`C1=Nc2c(NCc3ccccc3)ncnc2Oc2ccccc21` gave Bst PK mod >57 and YjeE inh inactive.
COc1nc(-c2ccccc2)ccc1-c1noc(-c2ccccc2F)n1 was read as Bst PK mod >57 and YjeE inh inactive.
COc1ccc([C@@H]2CC(=O)c3c(O)cc(O[C@@H]4O[C@@H](CO[C@@H]5O[C@@H](C)[C@@H](O)[C@@H](O)[C@H]5O)[C@@H](O)[C@@H](O)[C@H]4O)cc3O2)cc1O was read as YjeE inh inactive.
Screening CCOC(=O)Nc1ccc(NC(=O)c2c(OC)cccc2OC)cc1 returned Bst PK mod >11 and YjeE inh inactive.
`COC(=O)C1C(=O)c2c([nH]c(C(=O)OCCSC)c2C)CC1C` (stereo not drawn) gave YjeE inh inactive.
Screening CCCCCCn1c(SCCN2CCOCC2)nc2c1c(=O)[nH]c(=O)n2C returned Bst PK mod >26.
`COc1ccc(NC(=O)Cc2cccs2)c(OC)c1` gave YjeE inh inactive.
For C=CCN=C1CC(C)(C)CC(=O)/C1=C(/O)CCC(=O)OC the results were Bst PK mod >57 and YjeE inh inactive.
For COC(=O)[C@@H](NC(=O)Nc1ccc2c(c1)OCCO2)C(C)C the results were Bst PK mod >57 and YjeE inh inactive.
`O=C(CCn1c(=O)oc2ccccc21)NCc1cccs1` gave Bst PK mod >57 and YjeE inh inactive.
CCCc1cc(C(=O)NCc2ccco2)no1 was read as YjeE inh inactive.
`CCCCNC(=O)c1cc2c(=O)n3cccc(C)c3nc2n1C` gave YjeE inh inactive.
`O=C(C1CCN(S(=O)(=O)c2ccc3ccccc3c2)CC1)N1CCN(c2ncccn2)CC1` gave Bst PK mod inactive and YjeE inh inactive.
Cc1csc2nc(CNS(=O)(=O)c3ccc(-c4ccccc4)cc3)cn12 was read as YjeE inh inactive.
CSc1nn(CCc2ccncc2)c(=S)s1 was read as YjeE inh inactive.
Screening CCCn1cnc2c(SCC(=O)O)nc(N)nc21 returned YjeE inh inactive.
CCOC(=O)CS(=O)(=O)c1ccc2ccccc2c1 was read as Bst PK mod >57 and YjeE inh inactive.
Screening c1cnc(Oc2ccc3oc4ccccc4c3c2)nc1 returned Bst PK mod >57 and YjeE inh inactive.
For c1ccc(CCc2nn3c(Cn4cnc5ccccc54)nnc3s2)cc1 the results were Bst PK mod >57 and YjeE inh inactive.
For COc1cccc(-n2nnc3c(=O)n(Cc4c(F)cccc4Cl)cnc32)c1 the results were YjeE inh inactive.
Screening COc1cc(OC)c(-c2nnc(-c3ccc(OC)c(OC)c3OC)o2)cc1OC returned YjeE inh inactive.
Screening COC(=O)C1=C(C)NC(=O)C1(NC(=O)c1cccnc1)C(F)(F)F (stereo not drawn) returned Bst PK mod >57 and YjeE inh inactive.
`O=C(NC(Cc1c[nH]c2ccccc12)c1nnc2n1CCCCC2)c1cccs1` (stereo not drawn) gave Bst PK mod >57 and YjeE inh inactive.
`O=C(CN1C(=O)NC2(CCc3ccccc32)C1=O)c1ccc2c(c1)OCCO2` (stereo not drawn) gave Bst PK mod >57 and YjeE inh inactive.
For COc1ccc(NC(=O)Cn2cnc3c(cnn3-c3ccc(C)c(C)c3)c2=O)c(OC)c1 the results were Bst PK mod >57 and YjeE inh inactive.
For Cc1oc2ccc(OCC(N)=O)cc2c1C(=O)OC(C)C the results were Bst PK mod >57 and YjeE inh inactive.
CCCNC(=O)CCC(NS(=O)(=O)c1ccc(C)cc1)C(=O)NCCC (stereo not drawn) was read as Bst PK mod >57 and YjeE inh inactive.
`CC(C)(CCC(C)(C)c1ccccc1)c1ccccc1` gave YjeE inh inactive.
`CC(=O)C(Sc1ccc2nnc(-c3ccncc3)n2n1)C(C)=O` gave YjeE inh inactive.
COc1ccc(CCNC(=O)CSc2nc(C)nc3c2oc2ccccc23)cc1OC was read as Bst PK mod >57 and YjeE inh inactive.
For Cc1ccc(N2CC(C(=O)Nc3ccc(S(=O)(=O)N4CCOCC4)cc3)CC2=O)cc1 (stereo not drawn) the results were Bst PK mod >57 and YjeE inh inactive.
Screening CCCCCn1c(CN2CCN(c3cccc(Cl)c3)CC2)nc2c1c(=O)n(C)c(=O)n2C returned Bst PK mod >57 and YjeE inh inactive.
For Cc1ccc2cccc(O)c2[n+]1[O-] the results were Bst PK mod >57 and YjeE inh inactive.
For O=C1CCCN1CCCNc1ccc(S(=O)(=O)N2CCCCC2)cn1 the results were Bst PK mod >57 and YjeE inh inactive.
O=C(COc1ccc(Br)cc1)Nc1ccc(-c2nnc(-c3ccco3)o2)cc1 was read as Bst PK mod >57 and YjeE inh inactive.
For CC(=O)Nc1cccc(NC(=O)CCCC(=O)O)c1 the results were YjeE inh inactive.
For O=C(CSc1nnc(-c2cccnc2)n1CCc1ccccc1)N1CCCCC1 the results were Bst PK mod >57 and YjeE inh inactive.
For O=C(NCCc1ccccc1)C1CCCN(S(=O)(=O)c2cnc[nH]2)C1 (stereo not drawn) the results were YjeE inh inactive.
COc1ncc2nc(-c3ccc(F)cc3)c(=O)n(CCc3ccccc3)c2n1 was read as YjeE inh inactive.
`CC(C)(C)NC(=O)C(Cc1ccccc1)NS(=O)(=O)c1cccc2nsnc12` (stereo not drawn) gave Bst PK mod >57 and YjeE inh inactive.
CCn1cc(SCC(N)=O)c2ccccc21 was read as YjeE inh inactive.
CN1[C@@H](c2ccccc2)CC(=NO)C[C@H]1c1ccccc1 was read as YjeE inh inactive.
CN1CC2CCCC3(C1)C(=O)NC1(CCCCC1)N=C23 (stereo not drawn) was read as Bst PK mod >57 and YjeE inh inactive.
COc1ccc(NC(=O)C2CCCNC2)cc1OCC(C)C (stereo not drawn) was read as YjeE inh inactive.
Screening O=C(O)CSc1nnc(-c2ccccc2)o1 returned Bst PK mod >57 and YjeE inh inactive.
N#Cc1c2c(c(N3CCN(CCO)CC3)n3c1nc1ccccc13)CCCC2 was read as Bst PK mod >57 and YjeE inh inactive.
Screening c1ccc(-c2nc3ccccc3o2)nc1 returned YjeE inh inactive.
`O=C(NCCc1c[nH]c2ccccc12)c1ccc(S(=O)(=O)NCc2ccco2)cc1` gave Bst PK mod >57 and YjeE inh inactive.
Screening CCn1c(=O)c(C(=O)CN2CC(C)OC(C)C2)c(N)n(Cc2ccccc2)c1=O (stereo not drawn) returned Bst PK mod >57 and YjeE inh inactive.
For CN(c1ccccc1)C(c1ccc(F)cc1)c1nnnn1CC1CCCO1 (stereo not drawn) the results were Bst PK mod >57 and YjeE inh inactive.
`COc1ccc(-c2nnc(SCC(=O)N3CCCc4ccccc43)o2)cc1OC` gave Bst PK mod >57 and YjeE inh inactive.
`CC1=C(NCCc2ccccc2)CCC1=O` gave YjeE inh inactive.
`CN(C)c1nc(N)nc(CSc2nc3cc(Cl)ccc3o2)n1` gave Bst PK mod >57 and YjeE inh inactive.
For CC1(C)Cc2ccccc2-c2nnc(-c3ccccn3)n21 the results were Bst PK mod >57 and YjeE inh inactive.
`COc1ccccc1Nc1ccc(C(=O)NC2CCCCC2)cn1` gave YjeE inh inactive.
Screening Cn1c(SCC(=O)NCc2cccs2)nnc1-c1ccncc1 returned Bst PK mod >57 and YjeE inh inactive.
`O=C(Cn1cc2c(n1)CCCCC2)NCCN1CCOCC1` gave YjeE inh inactive.
`CCCn1c(=O)[nH]c(=O)c2c1nc(-c1ccccc1OC(F)F)n2CCOC` gave Bst PK mod >57 and YjeE inh inactive.
For CC(C)N(Cc1cc2ccccc2[nH]c1=O)C(=O)C1CCCCC1 the results were Bst PK mod >57 and YjeE inh inactive.
Screening O=C1c2ccccc2-c2nc3ncnn3c(-c3ccccc3Cl)c21 returned YjeE inh inactive.
`CC(C)C[C@H](NC(=O)Nc1cccc(Cl)c1)C(=O)O` gave Bst PK mod >57 and YjeE inh inactive.
N#Cc1nc(-c2ccc(OCc3ccccc3)cc2)oc1N1CCOCC1 was read as Bst PK mod 2* and YjeE inh inactive.
Screening COc1ccc(-c2cc(C(=O)OCC(=O)N(C)C)c3ccccc3n2)cc1 returned Bst PK mod 9.8* and YjeE inh inactive.
For CCOC(=O)COc1cc2c(C(=O)OCC)c(C)oc2cc1Br the results were YjeE inh inactive.
Screening C=CCSc1nc(N)c(C(=O)Nc2ccccc2C)cc1C(N)=O returned YjeE inh inactive.
`COc1ccc(NC(=O)c2cc(C(C)C)on2)cc1OC` gave YjeE inh inactive.
CC(C)COC(=O)NCCCOC(=O)Nc1ccccc1 was read as Bst PK mod >57 and YjeE inh inactive.
For O=C(c1coc(=O)c(Br)c1)N1CCOCC1 the results were Bst PK mod >26.
Screening COc1ccccc1-c1c(C)nn2c(N3CCN(c4ccccc4OC)CC3)cc(C)nc12 returned YjeE inh inactive.
OCCN1CCN(CC/C=C2\c3ccccc3Sc3ccc(C(F)(F)F)cc32)CC1 was read as YjeE inh inactive.
`CC(=O)Nc1ccccc1C=C1c2ccccc2-c2ccccc21` gave YjeE inh inactive.
Screening COc1ccc(OC)c(NC(=O)CSC2=NCCS2)c1 returned Bst PK mod >57 and YjeE inh inactive.
For CC1(C(=O)O)CC(C)(C(=O)O)CC(C)(C(=O)O)C1 (stereo not drawn) the results were Bst PK mod >57 and YjeE inh inactive.
`CNc1nc(C)c(C(=O)OCC(=O)OC)s1` gave YjeE inh inactive.
CC12CCC(C(=O)NCc3cccnc3)(OC1=O)C2(C)C (stereo not drawn) was read as Bst PK mod >57 and YjeE inh inactive.

Brought forward from above: 6 compounds, then new ones.
OCCN1CCN(CC/C=C2\c3ccccc3Sc3ccc(C(F)(F)F)cc32)CC1 was read as YjeE inh inactive.
`CC(=O)Nc1ccccc1C=C1c2ccccc2-c2ccccc21` gave YjeE inh inactive.
Screening COc1ccc(OC)c(NC(=O)CSC2=NCCS2)c1 returned Bst PK mod >57 and YjeE inh inactive.
For CC1(C(=O)O)CC(C)(C(=O)O)CC(C)(C(=O)O)C1 (stereo not drawn) the results were Bst PK mod >57 and YjeE inh inactive.
`CNc1nc(C)c(C(=O)OCC(=O)OC)s1` gave YjeE inh inactive.
CC12CCC(C(=O)NCc3cccnc3)(OC1=O)C2(C)C (stereo not drawn) was read as Bst PK mod >57 and YjeE inh inactive.
`CCOC(=O)N(Cc1ccccc1)C(C(=O)O)C(C(=O)O)N(Cc1ccccc1)C(=O)OCC` (stereo not drawn) gave Bst PK mod >57 and YjeE inh inactive.
`COC(=O)c1cccc(NC(=O)c2nn(C(C)C)c(=O)c3ccccc23)c1` gave Bst PK mod >57 and YjeE inh inactive.
For COc1ccccc1NS(=O)(=O)c1cccc2cccnc12 the results were YjeE inh inactive.
For COc1cc(C2C(C#N)=C(N)Oc3n[nH]c(-c4ccncc4)c32)cc(OC)c1OC (stereo not drawn) the results were Bst PK mod >57 and YjeE inh inactive.
Screening Cc1cc2ncn(CC(O)COc3cccc(C(=O)O)c3)c2cc1C (stereo not drawn) returned Bst PK mod >57 and YjeE inh inactive.
`Cc1ccc(C)c(NC(=O)c2ccccn2)c1` gave Bst PK mod >57 and YjeE inh inactive.
For O=c1c2ccccc2nnn1CSc1nnc2ccccn12 the results were Bst PK mod >57 and YjeE inh inactive.
Screening Oc1cc(NCc2cccnc2)ccc1-c1nc2ccccc2o1 returned YjeE inh inactive.
Cc1csc(Cn2c(CN(C)C)nc3ccccc3c2=O)n1 was read as Bst PK mod >57 and YjeE inh inactive.
Screening CS(=O)(=O)N(CC(=O)N1CCCCC1)c1sc2c(c1C#N)CCCC2 returned Bst PK mod >57 and YjeE inh inactive.
